Source: PubChem BioAssay (several laboratories)
MT1-MMP act inh = blockers of MT1-MMP proenzyme processing, primary screen, HT1080 RFP-PRO-GFP cells, GFP/RFP fluorescence | Matrix metalloproteinase-14 (Homo sapiens), P50281 | GFP/RFP ratio fluorescence, overnight; percent of plate control window, DMSO zero | GFP/RFP ratio change, % at 20 µM | 0.061% of 360,000 active | AID 651647, 2012;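 active = GFP/RFP ratio change of at least 30% with cell ATP level not reduced by more than half and red fluorescence within 50% of control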; note: strong numbers were not always called active
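Assay system: HT1080 cells carrying an RFP-PRO-GFP reporter | Dosing: Single dose of 20 µM compound, 1% DMSO final | Incubation: Cells overnight before dosing, compound overnight, 37 °C, 5% CO2 | Evaluation: GFP/RFP fluorescence ratio | Control set: DMSO and RFP-L50D-GFP cell wells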
HIV Env fusion = inhibitors of HIV-1 Env-driven cell-cell fusion, primary screen, HeLa-JRFL effector, CEM21 target cells, luciferase; inhibition, % at 12.3 µM; 1.1% of 360,000 active; AID 651610, 2012;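 active = mean replicate inhibition score of at least 50 and every replicate individually at or above 50; inconclusive = only one of the two criteria met; inactive = mean below 50 and not all replicates reaching 50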;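 note: 0% = plate neutral controls and 100% = maraviroc near 300 nM; one replicate is shown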
MT1-MMP act inh RFP = second read-out of MT1-MMP act inh, no call of its own (marks repeat the call); RFP signal change, %; measured here: RFP expression control read;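 0 = vehicle wells; hits needed this value within 50% of zero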
Starred values were filed as active, the others as inactive; i = inactive; ? = inconclusive; [ ] = dose if it differs, or a comment.

SMILES	MT1-MMP act inh	MT1-MMP act inh RFP	HIV Env fusion
CC(C)(C)NC(=O)C(CCc1ccccc1)n1c(=O)c(-c2cc3ccccc3[nH]2)nc2ccccc21 (stereo unspecified)	-13	-11	27
Cc1ccc(S(=O)(=O)N2CCC(=O)c3ccccc32)cc1	-2	-3	-12
Cc1[nH]nc2c(=S)[nH]c(=O)[nH]c12	5	1	-2
CCOc1ccccc1C=NNC(=O)CCCCC(=O)NN=Cc1ccccc1OCC	1	0	6
Cc1cc(O)c(C(C)C)cc1NC(=S)Nc1cc(C(C)C)c(O)cc1C	-4	-6	0
CCCNC(=O)c1cc2c(c(-c3cccc(-c4cc5ccccc5o4)c3)n1)[C@@H](CCO)N(C(=O)NC(C)C)C2	-6	-14	19[16.7 µM]
O=C1c2ccccc2C(c2nnnn2-c2ccc3c(c2)OCCO3)N1Cc1ccc2c(c1)OCO2 (stereo unspecified)	0	-2	?
CS(=O)(=O)Nc1ccc(Br)cc1	9	5	-5
CC(C)[C@@H]1Cc2[nH]c(=O)[nH]c(=O)c2[C@H](c2ccc(F)cc2)O1	1	1	-5
C[C@H](NC(=O)c1ncn2c1C(=O)NC[C@@H]2C)C(=O)OC(C)(C)C	7	4	1
CC(=O)N1CCC(C(=O)N2c3ccccc3N=C(c3ccc(C(F)(F)F)cc3)C2C(=O)NC(C)(C)C)CC1 (stereo unspecified)	-2	0	-18
O=C(C(=O)N1CCC(Cc2ccccc2)CC1)c1ccccc1Br	-2	-6	16
COC(=O)C[C@H]1C=C[C@H](NC(=O)c2cccc(F)c2)[C@@H](CO)O1	-1	4	7
COC(=O)[C@]12CCCCC=C1N(Cc1cccc3ccccc13)C(=O)[C@H](CC(=O)N1CCN(C(=O)C3CC3)CC1)C2	0	-5	-12
CCCCCCCCN1C(=O)[C@H](CC(=O)NCc2ccccc2)C[C@@]2(C(=O)OC)CCCCC=C12	-1	-13	49
c1ccc(CN(Cc2ccccc2)C(c2ccnc3ccccc23)c2nnnn2-c2ccc3c(c2)OCCO3)cc1 (stereo unspecified)	0	-16	22
Cc1ccc(C(=O)C(C)OC(=O)C2CCN(c3ccc(C(F)(F)F)cn3)CC2)cc1 (stereo unspecified)	-1	-3	1
CCOC(=O)C1(C(=O)OCC)NC(=O)CC1CC(C)C (stereo unspecified)	2	3	3
CC(C)(O)CN(C(=O)C(c1ccccc1)c1ccccc1)C1CCCCC1	-11	-4	19
COc1ccccc1NS(=O)(=O)c1ccc(C)c(C(=O)Nc2cc(C)on2)c1	3	2	17
Cc1cccc(C)c1NC(=O)C(c1ccccc1OC(F)(F)F)N1CCN(C)CC1 (stereo unspecified)	9	1	-8
COC(C(=O)C(O)C(C)O)C1Cc2cc3cc(OC4CC(OC5CC(O)C(O)C(C)O5)C(O)C(C)O4)c(C)c(O)c3c(O)c2C(=O)C1OC1CC(OC2CC(OC3CC(O)C(OC)C(C)O3)C(O)C(C)O2)C(O)C(C)O1 (stereo unspecified)	-20	7	78*
CCc1nc2c(OCc3ccc(C(F)(F)F)cc3)cccn2c1N(C)C(=O)CC(C)C	-9	-10	28
O=C(O)C1=C(C2CCCCC2)C(=O)c2ccccc21	-4	-5	-20
CN(C)CC1CCC/C(=C/c2ccc(Cl)cc2)C1=O (stereo unspecified)	5	1	-34
SMILES	MT1-MMP act inh	MT1-MMP act inh RFP	HIV Env fusion
CC(NCC(=O)Nc1ccccc1C(=O)NC1CC1)c1cccc(Cl)c1 (stereo unspecified)	-1	5	i
COc1ccc(C2=Nc3ccccc3N(C(=O)c3cnccn3)C2C(=O)NC2CCCC2)cc1 (stereo unspecified)	4	4	-24
c1ccc(N2[C@@H]3c4ccccc4C[C@H]2c2ccccc23)cc1	5	-3	-1
Cc1ccc(N2CCN(C(=O)C(=O)c3ccc4c(c3)OCO4)CC2)cc1	1	-1	-13
CCc1c(C2CC2)ncn1Cc1cccc(-c2ccccc2)c1	0	-34	6
O=[N+]([O-])c1ccc2c(c1)C(=NO)c1cc(Cl)c(Cl)cc1-2	1	1	-23
COc1ccc(NC(=O)CC2CC3CCC2C3)cc1S(=O)(=O)N1CCOCC1 (stereo unspecified)	2	1	44
O=c1[nH]c(=O)c2[nH]c(=O)n(-c3ccccc3)c2[nH]1	2	3	-15
O=C(NCc1ccccc1)C1c2ccccc2OCC(=O)N1C1CC1 (stereo unspecified)	3	1	-60
COc1ccc(-c2n[nH]nc2C2=CC(=O)CC(C)(C)C2)cc1	-3	-8	-1
O=c1c2cc3ccccc3nc2ncn1CCc1ccc(Cl)cc1	0	2	6
CCC(c1nnnn1-c1ccc2c(c1)OCCO2)N1CCN(c2ncccn2)CC1 (stereo unspecified)	2	1	-1
O=C(NCc1ccc(F)cc1F)[C@@H]1CCCN1C(=O)[C@@H]1CCCN1C(=O)c1cccc2ccccc12	-2	-4	2
COCCCNC(=O)C[C@@H]1C[C@@]2(C(=O)OC)CC(C)(C)CC=C2N(Cc2cccc3ccccc23)C1=O	-12	-14	18
CC(C)C[C@H]1CN(CCCC[C@@H]2CNC(=O)C(=O)N2CC2CCCCC2)C(=O)C(=O)N1CCc1ccccc1	7	5	6
COc1ccccc1-c1sc2ccccc2c1-c1cnc(N2CCOCC2)nc1	0	-2	-6
O=C(NCc1ccccc1)C(c1ccccc1)n1c(C2CC2)nc2ccccc21 (stereo unspecified)	1	0	-15
NC(=O)c1csc(C2OC(CO)C(O)C2O)n1 (stereo unspecified)	9	11	-29
CC(C)(C)NC(=O)C1C(c2ccccc2)=Nc2ccccc2N1C(=O)c1ccc(C(F)(F)F)cc1 (stereo unspecified)	-16	-14	-16
O=C(COC(=O)CC1CC2CCC1C2)NCc1ccc(F)cc1 (stereo unspecified)	1	2	-64
O=C1CCCC[C@@H](O)[C@H](O)C[C@H](c2ccccc2)O1	4	4	15
COC(=O)[C@H](NC(=O)c1cc(-c2ccccc2)sc1N)C(C)C	0	0	-17
CN(C)CCCNc1nc2cc(-c3ccsc3)sc2c(=O)n1C	10	6	-16
O=C1NC[C@H](CCCCN2CCN(CC3CCCCC3)C(=O)C2=O)N(Cc2ccccc2)C1=O	5	5	24
O=C(NC1CCCCC1)C1c2ccccc2OCC(=O)N1CCc1c[nH]c2ccccc12 (stereo unspecified)	-1	7	-14

Three of the compounds above, with values under each structure.
Every second line gives: MT1-MMP act inh, MT1-MMP act inh RFP, HIV Env fusion
- COC(=O)[C@H](NC(=O)c1cc(-c2ccccc2)sc1N)C(C)C
 : 0, 0, -17
- CN(C)CCCNc1nc2cc(-c3ccsc3)sc2c(=O)n1C
 : 10, 6, -16
- O=C1NC[C@H](CCCCN2CCN(CC3CCCCC3)C(=O)C2=O)N(Cc2ccccc2)C1=O
 : 5, 5, 24

One compound at a time (already shown). Values in the order: MT1-MMP act inh	MT1-MMP act inh RFP	HIV Env fusion
O=C1CCCC[C@@H](O)[C@H](O)C[C@H](c2ccccc2)O1 is listed as 4	4	15
COCCCNC(=O)C[C@@H]1C[C@@]2(C(=O)OC)CC(C)(C)CC=C2N(Cc2cccc3ccccc23)C1=O is listed as -12	-14	18

Among those listed so far, these contain bromine:
SMILES	MT1-MMP act inh	MT1-MMP act inh RFP	HIV Env fusion
CS(=O)(=O)Nc1ccc(Br)cc1	9	5	-5
O=C(C(=O)N1CCC(Cc2ccccc2)CC1)c1ccccc1Br	-2	-6	16

(cont.)
SMILES	MT1-MMP act inh	MT1-MMP act inh RFP	HIV Env fusion
CC(C)(O)C1=C[N+](=O)CC=C1	11	9	-10
Cc1nnsc1-c1nc2ccccc2n1C(CCc1ccccc1)c1nc2ccccc2[nH]1 (stereo unspecified)	2	-2	-13
CCOC(=O)/C=C/c1cc(F)ccc1O	6	3	-5
Cn1c(N)c(C(=O)CSc2nnc(-c3cccs3)n2C2CC2)c(=O)[nH]c1=O	2	4	-30
CC(=NNC(=S)N1CCCCCC1)c1ccccn1	0	-2	42
Cc1cccc(C(=O)N2CCC(=O)N([C@H](COCc3cccc(Cl)c3)Cc3ccccc3)CC2)c1	8	-5	11
CC1=CC2C(C3C=CC2(C)C(=O)C3(C)O)C(C)(O)C1=O (stereo unspecified)	2	3	24
CSc1ncccc1C(=O)OCC(=O)c1ccc(C)s1	-1	2	-1
COc1ccccc1C(CC(=O)c1ccccc1)C(=O)c1ccccc1 (stereo unspecified)	-2	1	6
CCCCCCCCN1C(=O)[C@H](CC(=O)N2CCSCC2)C[C@@]2(C(=O)OC)CCCCC=C12	-2	-7	0
COc1ccc(C(N)c2csc(Nc3ncccn3)n2)cc1 (stereo unspecified)	-2	2	-28
Nc1cc(=O)n(Cc2ccccc2)c(=O)n1Cc1ccccc1	1	3	1
N#CCCN(Cc1ccccc1)C(c1ccnc2ccccc12)c1nnnn1-c1ccc2c(c1)OCCO2 (stereo unspecified)	-3	-5	-152
CCSc1nc(COC(=O)NC)c(COC(=O)NC)n1C	1	6	-5
CC1(C)N=C(N)N=C(N)N1c1cccc(C#N)c1	-4	2	-7
CCOc1ccc(CCN2C(=O)C(=O)N([C@@H](Cc3ccccc3)CN3CCC[C@H]3CN3C(=O)C(=O)NC[C@@H]3Cc3ccccc3)C[C@@H]2CC(C)C)cc1	14	-6	-171
COC(=O)C1CCN(C(=O)CN2C(=O)NC3(CCC(C)CC3)C2=O)CC1 (stereo unspecified)	-5	-3	-7
CCN1CC(C)(C)N(C(=O)c2ccccc2)CC1(C)C	-2	-1	-9
CCCNC(=O)C1(C)CCCN(Cc2ccc(C)cc2)C1 (stereo unspecified)	1	3	1
C=C1C(=O)O[C@H]2[C@H]1[C@H](OC(=O)/C(C)=C\C)C[C@]1(CO1)[C@@H]1[C@H](OC(C)=O)C=C(C)[C@]21O	-3	0	-3
C(=NN=C1c2ccccc2-c2ccccc21)c1c[nH]c2ccccc12	8	5	-1
CN(C)Cc1cccc(-c2ccccc2)c1O	-5	1	-3
O=C1c2c(-c3ccc(Br)cc3)noc2CCN1Cc1cn(Cc2ccccc2)nn1	-1	-10	11
COc1ccc(NC(=O)CN2C(=O)c3ccccc3S2(=O)=O)cc1S(=O)(=O)N1CCOCC1	-3	3	-5
O=C(NCc1ccccc1)C(c1ccncc1)n1c(=O)c(-c2ccco2)nc2ccccc21 (stereo unspecified)	-3	5	-11
O=C(NCc1ccccc1)C1c2ccccc2OCC(=O)N1CCCN1CCOCC1 (stereo unspecified)	4	2	-20
O=c1c(-c2cccnc2)nc2ccccc2n1C(c1ccccn1)c1nc2ccccc2[nH]1 (stereo unspecified)	7	8	-14
Cc1cccc(C)c1NC(=O)C(c1ccnc2ccccc12)N1CCN(C)CC1 (stereo unspecified)	5	2	11

Retrieved by structure from the list above, 7 records:
SMILES	MT1-MMP act inh	MT1-MMP act inh RFP	HIV Env fusion
COc1ccc(C(N)c2csc(Nc3ncccn3)n2)cc1 (stereo unspecified)	-2	2	-28
CN(C)Cc1cccc(-c2ccccc2)c1O	-5	1	-3
CCN1CC(C)(C)N(C(=O)c2ccccc2)CC1(C)C	-2	-1	-9
O=c1c(-c2cccnc2)nc2ccccc2n1C(c1ccccn1)c1nc2ccccc2[nH]1 (stereo unspecified)	7	8	-14
CC1(C)N=C(N)N=C(N)N1c1cccc(C#N)c1	-4	2	-7
O=C(NCc1ccccc1)C1c2ccccc2OCC(=O)N1CCCN1CCOCC1 (stereo unspecified)	4	2	-20
CC(=NNC(=S)N1CCCCCC1)c1ccccn1	0	-2	42

Some of the compounds tested; count on the stated rates, not on these rows.
